# RGS16-Gao HTS: RGS16-Galphao interaction regulator (human); O15492+P09471; bead-based flow cytometry RGS16-Galphao binding, fluorescence; actives lie on both sides; binding response (% of control), % at 10 µM; 220,000 compounds, 0.38% hits;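 active = below 25% or above 175%, edge rows of some plates excepted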;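 note: Galphao activated by GDP with aluminum fluoride before binding; 100% = wells without compound and 0% = beads without RGS; some results beyond the cut were filed as inactive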
# HSV replic up: increases HSV replication in cells; HSV replication augmentation in cells, fold increase; maximum fold increase; 220,000 compounds, 0.005% hits; AID 1956;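 active = peak rise of 1.5-fold or more in the series; tested in PC3 cells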;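 note: first round at 10 µM; read as green reporter fluorescence; hits show the peak of a series up to 25 µM; 1 = signal of infected wells without compound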
# PKD1 kinase inh: blocks activity of human protein kinase D1; Q15139; PKD1 kinase fluorescence polarization assay; inhibition, %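 (about 10 µM by stock and volumes)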; 200,000 compounds, 0.056% hits; AID 797;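 active = inhibition of 50% or more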;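 note: controls were vehicle for no effect and a reference inhibitor for full effect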
# Target sequence (Q15139 whole entry, looked up): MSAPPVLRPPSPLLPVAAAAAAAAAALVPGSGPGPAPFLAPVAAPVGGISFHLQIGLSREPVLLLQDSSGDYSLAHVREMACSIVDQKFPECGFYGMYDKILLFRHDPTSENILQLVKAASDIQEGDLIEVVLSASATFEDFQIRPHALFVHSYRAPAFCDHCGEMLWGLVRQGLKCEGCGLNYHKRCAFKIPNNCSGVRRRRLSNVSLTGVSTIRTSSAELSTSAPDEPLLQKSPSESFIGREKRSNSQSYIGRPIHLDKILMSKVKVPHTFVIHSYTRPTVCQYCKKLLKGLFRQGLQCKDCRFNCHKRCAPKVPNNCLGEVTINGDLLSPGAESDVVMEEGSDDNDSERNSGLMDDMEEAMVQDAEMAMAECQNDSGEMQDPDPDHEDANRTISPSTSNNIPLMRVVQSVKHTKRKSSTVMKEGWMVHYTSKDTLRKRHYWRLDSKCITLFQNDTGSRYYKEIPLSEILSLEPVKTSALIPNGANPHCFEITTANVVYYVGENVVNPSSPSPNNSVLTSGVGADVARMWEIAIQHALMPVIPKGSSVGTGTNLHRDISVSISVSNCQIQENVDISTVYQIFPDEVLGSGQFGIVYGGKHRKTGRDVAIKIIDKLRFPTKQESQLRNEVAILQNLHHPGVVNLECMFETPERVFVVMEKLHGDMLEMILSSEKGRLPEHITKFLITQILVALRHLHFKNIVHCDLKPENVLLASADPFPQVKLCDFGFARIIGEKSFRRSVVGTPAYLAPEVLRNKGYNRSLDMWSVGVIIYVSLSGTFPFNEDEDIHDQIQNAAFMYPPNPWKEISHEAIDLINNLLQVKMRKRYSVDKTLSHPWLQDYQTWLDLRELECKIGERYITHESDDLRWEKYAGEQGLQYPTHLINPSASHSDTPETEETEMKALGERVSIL
# Insulin prom inh: TRM-6 insulin promoter activity inhibition; 130,000 compounds, 0.9% hits; TRM-6 cells (human fetal islet line), insulin promoter-eGFP reporter, imaging; reporter expression induced with tamoxifen; inhibition, % at 2 µM; AID 1273;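 active = inhibition above the mean plus 3 SD, with well images judged a real hit on visual review, cut at about 60% in these data, passing the limit was not always enough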
# GALR2 agonist: GALR2 (human) receptor agonism; GALR2-expressing cells, agonist activation read-out; activation, %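 (tested at 5 µM)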; 140,000 compounds, 0.48% hits;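 active = above mean plus 3 SD of all compounds, about 5% in these data, not always enough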;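 note: 0% = vehicle buffer wells and 100% = reference agonist at full effect; tested in CHO reporter cells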
# Insulin prom inh cell count: also measured in Insulin prom inh; calls as there; normalized cell count, %; measured here: cell count, toxicity; reference of the scale not given here;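 cells exposed to compound for 48 h; stained nuclei by imaging scaled within each plate; lower means fewer cells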
# HSV replic up primary fold: further read-out of HSV replic up, marked with its call; fold increase; compound at 10 µM; measured here: primary screen fold increase 10 uM; tested in PC3 cells;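 GFP signal in the first replicate; 1 = infected wells without compound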
# An asterisk follows results filed as active; i = inactive; nt = no result given; & = joins results of further samples.
# Start of the listing, in advance (seven entries):
SMILES,RGS16-Gao HTS,HSV replic up,HSV replic up primary fold,PKD1 kinase inh,Insulin prom inh,Insulin prom inh cell count,GALR2 agonist
CCCn1c(N)c(C(=O)COc2ccc(Br)cc2F)c(=O)n(C)c1=O,103.8,i,0.9,-6.2,nt,nt,nt
COc1ccc(C=C(C(C)=O)C(C)=O)cc1OC,105.5,i,0.94,-4.3,nt,nt,-3.7
CCOC(=O)c1c(NC(=O)C2c3ccccc3Oc3ccccc32)sc(C(N)=O)c1C,107.9,nt,nt,-0.1,0.0,125.6,-0.4
Cc1c(N=NC2=C(O)CC(C)(C)CC2=O)c(=O)n(-c2ccccc2)n1C,112.0,i,0.99,5.6,38.1,64.1,nt
Cc1cc(=O)n2nc(N3CCC(C(=O)N4CCN(Cc5ccccc5)CC4)CC3)sc2n1,105.9,i,1.07,3.5,-431.2,44.6,-0.7
Cc1ccc(SCCNC(=O)/C=C/c2ccccc2Cl)cc1,98.4,i,0.97,5.1,-3.3,76.5,-2.7
Cn1c(SCC(=O)N2CCOCC2)nnc1-c1ccc(NC(=O)c2ccccc2F)cc1,99.4,i,0.98,-6.9,nt,nt,-0.5

# This part in full (from the top)
SMILES,RGS16-Gao HTS,HSV replic up,HSV replic up primary fold,PKD1 kinase inh,Insulin prom inh,Insulin prom inh cell count,GALR2 agonist
CCCn1c(N)c(C(=O)COc2ccc(Br)cc2F)c(=O)n(C)c1=O,103.8,i,0.9,-6.2,nt,nt,nt
COc1ccc(C=C(C(C)=O)C(C)=O)cc1OC,105.5,i,0.94,-4.3,nt,nt,-3.7
CCOC(=O)c1c(NC(=O)C2c3ccccc3Oc3ccccc32)sc(C(N)=O)c1C,107.9,nt,nt,-0.1,0.0,125.6,-0.4
Cc1c(N=NC2=C(O)CC(C)(C)CC2=O)c(=O)n(-c2ccccc2)n1C,112.0,i,0.99,5.6,38.1,64.1,nt
Cc1cc(=O)n2nc(N3CCC(C(=O)N4CCN(Cc5ccccc5)CC4)CC3)sc2n1,105.9,i,1.07,3.5,-431.2,44.6,-0.7
Cc1ccc(SCCNC(=O)/C=C/c2ccccc2Cl)cc1,98.4,i,0.97,5.1,-3.3,76.5,-2.7
Cn1c(SCC(=O)N2CCOCC2)nnc1-c1ccc(NC(=O)c2ccccc2F)cc1,99.4,i,0.98,-6.9,nt,nt,-0.5
COc1cccc(/C=N/NC(=S)Nc2cccc(S(=O)(=O)N(C)C)c2)c1,97.9,i,1.03,nt,nt,nt,nt
O=C(COc1ccc([N+](=O)[O-])cc1)NCc1cccnc1,102.6,i,1.03,-10.5,3.5,153.7,0.0
Cc1cc(S(=O)(=O)N(C)CCc2ccccc2)ccc1-n1cnnn1,101.7,i,0.94,-5.5,nt,nt,-6.4
CCOc1c2ccc(C(=O)NCc3ccc4c(c3)OCO4)cc2nn1CC,95.6,i,0.86,-7.0,nt,nt,-3.2
CC(=O)NC(=S)Nc1ccc(N2CCOCC2)c(S(=O)(=O)Nc2cc(Cl)ccc2Cl)c1,97.0,i,0.91,0.2,nt,nt,nt
COC(C(=O)NCc1ccc(C)cc1)c1ccccc1 (centres undefined),105.3,i,1.06,4.5,nt,nt,nt
COC(=O)c1cc(C)sc1NC(=O)CC1Nc2ccccc2NC1=O (centres undefined),100.0,i,1.09,-1.0,nt,nt,nt
Cc1cccc(N2CCN(C(=O)c3ccc4nc[nH]c4c3)CC2)c1C,111.6,i,1.02,2.7,-3.7,117.6,-0.2
Cc1nc2sc3c(c2c(=O)n1NC(=O)CCl)CCCC3,104.6,i,1.02,8.6,60.0,133.2,nt
CCN(CC(=O)NC(C)(C)C)C(=O)c1ccc(Br)cc1,98.9,i,0.92,0.3,0.0,61.4,nt
CC(O)(C#CCN1CCCCC1)c1ccccc1 (centres undefined),100.2,i,0.89,-6.0,37.5,125.9,-0.3
CC(=O)c1cc(NC(=O)c2ccc(C)cc2)c(=O)oc1C,101.1,i,0.95,-2.1,nt,nt,nt
Nc1nc(-c2ccc(C(=O)O)cc2)cs1,96.3,i,1,-6.2,nt,nt,nt
CC(=O)N/C(=C\c1ccccc1)C(=O)OCC(=O)N1CCCCCC1,57.0,i,0.92,-0.6,32.4,78.8,-0.5
COC(=O)/C=C1\NC(=O)C(C)S1 (centres undefined),99.5,i,0.98,-4.1,nt,nt,nt
O=C(CN1C(=O)c2cccc3cccc1c23)NCC1CCCO1 (centres undefined),105.8,i,0.89,-5.4,52.4,108.9,-1.6
O=C(O)CC1CCC(=C(Cl)Cl)C1 (centres undefined),99.5,i,0.92,-11.3,nt,nt,-1.9
Cc1ccc(NC(=O)c2sc3nc4c(c(-c5ccco5)c3c2N)CCC4)cc1,93.6,i,0.937,-4.1,31.6,82.6,-0.4
O=C(N/N=C\c1ccc(CN(Cc2ccc(Cl)cc2)S(=O)(=O)c2ccccc2)o1)C(=O)Nc1ccc(F)cc1,97.0,nt,nt,1.6,39.0,135.2,-2.1
Cc1cc2cc(C)c(NCCNC(=O)c3ccccc3)nc2cc1C,103.9,i,0.96,4.4,nt,nt,nt
CC1(C)CC(=O)N(CC(=O)NCc2ccccc2)c2ccccc2S1(=O)=O,102.5,i,0.8,-8.8,nt,nt,-1.9
CCOC(=O)NC(=O)CSc1nc(-c2ccc(C)c(C)c2)cn1-c1ccccc1,44.9,i,0.92,-11.9,-59.4,75.7,-0.4
C=CCSc1nc(Cc2ccc(Cl)cc2)nc2ccccc12,95.6,i,1.11,2.7,-6.9,127.0,0.0
COC(=O)C(Cc1ccccc1)NS(=O)(=O)c1ccccc1Br (centres undefined),97.9,i,1.01,nt,nt,nt,nt
COC(=O)c1oc2ccc(Br)cc2c1NC(=O)CN1CCN(C)CC1,nt,i,0.85,-2.2,-39.3,89.8,-3.0
O=C1c2ccccc2C(=O)N1CCSc1nncs1,104.8,i,0.96,-8.1,nt,nt,-2.0
CCN(CC)c1ccc(N=Nc2ncn[nH]2)cc1,106.7,i,0.82,0.8,63.6,173.7,nt
Cc1nc2c(-c3ccccc3)c(C)nn2c(C)c1CC(=O)O,72.8,i,0.973,1.4,nt,nt,-1.0
COc1ccc(CCC(=O)NCCc2cn3c(C)csc3n2)cc1,101.5,i,0.87,-0.9,nt,nt,-3.4
O=[N+]([O-])c1cc(Cl)c2cccnc2c1O,95.7,i,1.07,0.0,nt,nt,nt
CC1CCN(C(=S)NC2CC3CCC2C3)CC1 (centres undefined),76.8,i,0.95,-2.6,nt,nt,-1.1
CCOC(=O)C1CCC(CN(Cc2ccccc2)S(=O)(=O)c2ccc([N+](=O)[O-])cc2)CC1 (centres undefined),100.2,i,0.98,3.9,nt,nt,-1.1
O=C(CSc1nnc(C2CC2)n1-c1ccccc1)NCCc1ccccc1,101.4,i,0.85,-6.8,7.2,53.2,0.4
CC(=O)c1ccc(OCCCN2CCCCC2)cc1,133.2,i,0.95,4.1,11.1,104.7,-1.5
N#CC(=C1CCCC1)c1nc(-c2ccc(Cl)cc2)cs1,100.6,i,1.05,-1.0,-8.6,88.2,-1.5
COc1ccc2c(c1)[nH]c1c(=O)n(CCc3cnc[nH]3)cnc12,99.2,i,0.93,3.1,36.4,99.5,-1.4
COc1ccc(CCNC(=O)C2CCN(S(C)(=O)=O)CC2)cc1OC,136.8,i,0.96,-10.3,5.3,171.6,0.4
CCN1CCN(c2ncnc3c2oc2nc(C)c4c(c23)CC(C)(C)OC4)CC1,nt,nt,nt,-12.6,-13.5,96.7,-3.2
COc1ccc(NS(=O)(=O)c2cc(NC(=O)c3ccc(=O)[nH]c3)ccc2N2CCOCC2)cc1,100.1,i,1.11,2.6,5.6,94.2,nt
COCCCn1c2nc3ccccc3nc2c2c(=O)n(-c3ccccc3OC)cnc21,93.7,i,0.85,-7.4,30.6,78.6,2.8
CCCc1cc(=O)n2[nH]c(C)nc2n1,97.5,i,1,-10.8,14.3,87.3,-1.8
CCN(CC)S(=O)(=O)c1ccc(NC(=O)c2ccccc2N(C)S(C)(=O)=O)cc1,103.5,i,0.91,0.7,-62.1,111.6,-1.6
CCCCc1n(CC(=O)c2ccc(Cl)cc2)c2ccccc2[n+]1C,99.2,i,0.97,-8.2,18.8,170.6,nt
N/C(=N\O)c1ccccc1-n1cccc1,99.0,i,0.95,-2.1,nt,nt,nt
O=C(CN1C(=O)CCSc2ccccc21)Nc1ccccc1,109.7,i,1.13,11.6,nt,nt,-0.5
CCNc1nc(NCC)nc(OCCNS(=O)(=O)c2cc(C)ccc2C)n1,20.2,i,0.88,1.2,-48.0,186.4,-0.7
Cc1ccc(-c2nn(-c3ccccc3)cc2C(=O)NN2CCN(C)CC2)cc1,98.0,i,0.87,-1.1,-60.0,154.8,nt
CN1CCN(c2ccc(S(=O)(=O)N3CCCCC3)cn2)CC1,102.3,i,0.84,-7.6,-5.7,26.6,-1.1
CCCCn1c(SCC(=O)N2CC(=O)Nc3ccccc32)nnc1-c1ccoc1C,105.5,i,1.07,2.0,-3.7,161.4,-0.7
COc1cccc(Oc2cn[nH]c2-c2ccc(O)cc2O)c1,95.7,i,0.82,6.4,-15.0,131.2,-0.7
O=C(COc1ccccc1)Nc1nn[nH]n1,102.2,nt,nt,-6.7,33.3,110.6,-0.9
Cc1nn(Cc2c(F)c(F)c(F)c(F)c2F)c(C)c1NC(=O)c1ccc(COc2cc(Cl)ccc2Cl)cc1,29.7,i,0.82,6.1,-31.1,86.8,0.1
CCCn1nc(NS(C)(=O)=O)c2cc3cccc(C)c3nc21,81.5,i,1.06,-7.1,16.7,104.3,-1.6
# Further structures
SMILES,RGS16-Gao HTS,HSV replic up,HSV replic up primary fold,PKD1 kinase inh,Insulin prom inh,Insulin prom inh cell count,GALR2 agonist
COc1ccc(/C(O)=C2/C(=O)C(=O)N(CCN(C)C)C2c2cccnc2)cc1OC (centres undefined),109.1,i,0.93,-4.1,-7.1,103.8,nt
CC(=O)OCC1=C(C(=O)O)N2C(=O)[C@@H](NC(=O)Cc3cccs3)[C@H]2SC1,98.4,i,1.01&0.93,-6.0,-9.5,123.8,-1.4
COc1ccc(-n2c(Cn3nnc4ccccc43)n[nH]c2=S)cc1,99.1,i,1.15,-2.2,nt,nt,-1.4
CC(=O)N/C(N)=N/c1nc(=O)c2ccccc2s1,86.4,i,0.92,nt,nt,nt,nt
CC(C)NC(=O)NC(=O)COC(=O)c1ccccc1Oc1ccccc1,90.5,i,0.9,-2.4,-18.9,87.0,-0.6
COc1cccc(C(CC(=O)NCCN2CCOCC2)NS(=O)(=O)c2ccc(C)cc2)c1OC (centres undefined),105.0,i,0.89,-6.0,-8.3,85.7,-0.8
O=C(C1CC(c2ccc(F)cc2)=NO1)N1CCCc2ccccc21 (centres undefined),99.4,i,1.21,-1.1,-18.8,60.4,0.6
CC(C)CC(NC(=O)C1CCC(C)CC1)C(=O)NCc1ccco1 (centres undefined),106.8,i,0.94,-5.9,-6.7,124.9,nt
CCCCNCCCOc1cccc(Cl)c1,94.5,i,0.78,-10.2,-12.5,76.5,-0.7
O=C(CSCSCC(=O)NCC1CCCO1)NCC1CCCO1 (centres undefined),103.6,i,0.97,10.2,nt,nt,-1.2
COc1cc(Br)c(C(C)NC(=O)c2ccccc2)cc1OC (centres undefined),97.4,i,0.93,-3.6,nt,nt,0.1
CC(=O)c1nnn(-c2ccc(Cl)cc2C#N)c1C,97.4,i,0.94,nt,nt,nt,nt
C/C(CCN1CCCCc2nc(C)c(C)cc21)=N\OC[C@@H](O)[C@H]1O[C@@H]2OC(C)(C)O[C@@H]2[C@H]1O,113.8,i,0.83,-8.8,-4.5,89.5,-1.8
O=C(NC1CCN(Cc2ccccc2)CC1)c1ccc(Cn2c(=S)[nH]c3ccc(N4CCOCC4)cc3c2=O)cc1,101.7,i,0.78,-3.2,-57.1,94.7,nt
COCCN(CC(=O)NC1CCCCC1)C(=O)c1csnn1,107.2,i,0.68,1.0,nt,nt,-4.7
CC1CCCCC1NC(=O)COC(=O)COc1ccc(Cl)cc1 (centres undefined),106.5,i,1.04,-3.9,-33.3,57.5,-0.7
COCCn1c(-c2ccsc2)nc2c1c(=O)[nH]c(=O)n2CC(C)C,102.7,i,0.98,-5.2,7.2,94.3,-1.0
CCc1ccc(-n2c(SCC(=O)N3Cc4ccccc4CC3C(=O)O)nnc2-c2ccncc2)cc1 (centres undefined),98.0,i,1.08,nt,nt,nt,nt
CC(C)(C)C(=O)O/N=C(\N)c1ccc(Oc2cc(Cl)cc(Cl)c2)c([N+](=O)[O-])c1,106.4,i,0.83,nt,nt,nt,nt
CNC(=S)N(Cc1ccco1)Cc1cc2cc3c(cc2[nH]c1=O)OCCO3,97.0,i,1.14,-11.9,55.6,159.4,0.9
CCC(Sc1nc2cc(OC)c(OC)cc2c(=O)n1CCc1ccc(OC)c(OC)c1)C(=O)NCCOC (centres undefined),108.6,i,0.92,-2.5,21.4,164.1,nt

# From PubChem
